Bioassay records as filed in PubChem.
Kir21 block – inhibitors of mouse Kir2.1 inward-rectifier potassium channel; P35561; HEK293-Kir2.1, FluxOR thallium flux fluorescence; stronger effect = lower value; 0.85% of 310,000 active; B-score at 10 µM;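 active = fluorescence ratio B-score at or below minus 3 SD of library scores, with starting-brightness B-score within 2 SD, cut at about -4.2 in these data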;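 note: channel flux triggered by added potassium and thallium sulfate stimulus; B-score of peak minus minimum fluorescence over baseline after thallium stimulus; more negative B-score means stronger Kir2.1 block with less thallium influx; some compounds called inactive have numbers as strong as hits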
Target sequence (P35561 whole entry, looked up): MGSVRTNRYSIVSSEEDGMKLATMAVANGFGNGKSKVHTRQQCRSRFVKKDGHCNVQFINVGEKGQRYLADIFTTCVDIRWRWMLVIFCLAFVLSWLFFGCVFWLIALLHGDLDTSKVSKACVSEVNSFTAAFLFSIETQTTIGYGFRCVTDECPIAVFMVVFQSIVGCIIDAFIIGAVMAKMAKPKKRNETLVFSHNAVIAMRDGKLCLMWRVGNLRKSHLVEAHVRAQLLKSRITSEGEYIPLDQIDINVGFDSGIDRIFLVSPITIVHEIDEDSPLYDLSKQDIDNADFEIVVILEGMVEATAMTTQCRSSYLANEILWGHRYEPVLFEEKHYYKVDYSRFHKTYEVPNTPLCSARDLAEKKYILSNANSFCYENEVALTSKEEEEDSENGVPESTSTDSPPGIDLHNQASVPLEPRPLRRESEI
The depositor's hits bear a star. A portion of the library; most or all hits stand in other tables.

SMILES	Kir21 block
CCCn1c(N2CCN(C)CC2)nc2c1c(=O)[nH]c(=O)n2C	0.7
CN1CC(=O)NC1=NC(=O)c1ccc(Cl)c(S(=O)(=O)N2CCCCCC2)c1	-1.32
Cc1coc2c1c(C)cc1oc(=O)c(CC(=O)NCCC(=O)O)c(C)c12	-0.38
C/C(=N\NC(=O)OC(C)(C)C)c1ccc(-n2ccnc2)cc1	0.06
Cc1ccc(C(=O)NCCc2nnc3ccc(SCC(=O)N4CCCCC4)nn23)cc1	-0.67
CC1CCCCC1NCc1cccc([N+](=O)[O-])c1 (stereo not drawn)	-1.31
CCNc1c(NS(=O)(=O)c2ccc([N+](=O)[O-])cc2)c(=O)oc2ccccc12	-0.17
CCc1ccc(C(C)NC(=O)C2CCCO2)cc1 (stereo not drawn)	-0.9
CCN1CCc2c(sc(NC(=O)c3ccc(S(=O)(=O)N4CCOCC4)cc3)c2C(=O)OC)C1	0.16
CCN(CC)S(=O)(=O)c1cccc(NC(=O)c2ccccc2Br)c1	-0.63
CCOc1cc2[nH]c(=S)n(Cc3ccc(C(=O)NCCCOC)cc3)c(=O)c2cc1OCC	-3.55
CCCC(=O)O/N=C(\c1ccccc1)c1ccncc1	0.27
N#Cc1c(-c2ccccc2)nc(SCc2ccc([N+](=O)[O-])cc2)[nH]c1=O	0.58
COc1ccc(NC(=S)NC(=O)c2ccccc2Cl)cc1	-0.53
c1coc(-c2nc3nc4ccccc4nc3n2CC2CCCO2)c1 (stereo not drawn)	0.47
O=C(/C=C/c1ccc(Cl)cc1)N(Cc1ccccc1)C1CCS(=O)(=O)C1 (stereo not drawn)	-0.08
CC(CN1CCN(C)CC1)OC(=O)c1ccc(Cl)cc1 (stereo not drawn)	1.2
O=C1CC(C(F)(F)C(F)(F)C(F)(F)C(F)(F)F)=Nc2ccccc2N1	-0.48
OCC1(CCOc2ccccc2)CCN(Cc2ccc3c(c2)OCCO3)CC1	-1.67
O=C(Nc1ccccc1N1CCN(C(=O)c2ccccc2)CC1)c1cccc(Cl)c1	-0.01
Cn1c(SCc2ccccc2)nnc1-c1ccc2nonc2c1	1.54
O=C(c1ccc(N2CCN(S(=O)(=O)c3ccccc3)CC2)c([N+](=O)[O-])c1)N1CCOCC1	1.37
CNC(=S)N(Cc1ccc2c(c1)OCO2)C1CC(=O)N(c2ccccc2)C1=O (stereo not drawn)	-0.66
O=C(c1ccc(NC2=NC3CS(=O)(=O)CC3S2)cc1)N(CCO)Cc1ccccc1 (stereo not drawn)	0
COc1ccc(NC(=S)N2CCCC(CO)C2)c(OC)c1 (stereo not drawn)	0.85
Fc1ccc(-[n+]2nc(Nc3ccccc3)sc2-c2ccc(OCc3ccccc3)cc2)cc1	-0.52
COc1ccc(-c2cc(C(=O)NC3=NCCS3)c3ccccc3n2)cc1OC	0.68
COc1ccc(NC(=O)c2ccc(CNc3c(NC4CCCCC4)c(=O)c3=O)cc2)c(OC)c1	0.19
COc1ccc(C(=O)n2nc(C)c(Br)c2C)cc1	1.14
CCOC(=O)c1cccc(NC(=O)Cn2nc(C)n3cccc3c2=O)c1	-2.13
CCOC(=O)c1cc2c(=O)n3ccccc3nc2n(CC2CCCO2)c1=NC(C)=O (stereo not drawn)	0.48
O=C(CN1C(=O)c2ccccc2S1(=O)=O)NCc1cccnc1	0.34
Cc1nc(C(=O)N2CCCC(C(=O)c3cccc(OC(C)C)c3)C2)cs1 (stereo not drawn)	-0.87
CCOC(=O)c1c(NC(=S)NC(=O)c2ccc(Cn3cc(Cl)cn3)o2)sc2c1CCC(C)C2 (stereo not drawn)	0.02
COc1ccc2c(C)cc3nncn3c2c1	0.57
CC1CCN(C(=O)CSc2nnc3c(n2)[nH]c2ccc(F)cc23)CC1	-0.64
NC(=O)c1ccccc1-c1nc(-c2ccccc2)no1	0.52
CCCc1ccc(OCc2ccccc2)c2c(=O)cc(C(=O)OCC)oc12	-0.26
Cc1coc2c(C)c3oc(=O)c(CC(=O)N[C@@H](CC(C)C)C(=O)O)c(C)c3cc12	-1.77
COc1ccc(/C=C/C(=O)OCC(=O)NCc2ccco2)c(OC)c1	-1.11
O=C(CCC(F)(F)F)N1CCCC(CO)(CCc2ccccc2)C1 (stereo not drawn)	-0.48
CCOc1ccc2ncc(S(=O)(=O)c3ccc(C)cc3)c(N3CCC4(CC3)OCCO4)c2c1	0.03
CS(=O)(=O)c1cnc(-c2ccccc2)nc1Sc1ccc(F)cc1	0.13
O=C(Nc1ccccc1)N1CCCC2CCCCC21 (stereo not drawn)	0.82
CCOC(=O)NC(=O)/C(C#N)=N\Nc1cccc(Cl)c1	-1.26
CCOC(=O)CN1C(=O)COc2ccc(Cl)cc21	0.09
COc1ccc(/C=C/C(=O)Oc2ccc(C=O)cc2OC)cc1	-0.63
COc1ccc(S(=O)(=O)N(CC(=O)O)c2ccccn2)cc1	0
COCCn1c(C)cc(C(=O)COC(=O)c2cccc(O)c2)c1C	1.39
CCC(=O)c1ccc(OCc2ccccc2)c(OC)c1	-1.8
Cc1cc(S(=O)(=O)N2CCCC2)ccc1OCC(=O)NC1CCCC1	0.77
CC(C)(C)C1(O)CC(C(F)(F)F)=NN1C(=O)CCCc1ccccc1 (stereo not drawn)	-2.26
Cc1cc(-c2csc(N)n2)c(C)n1Cc1ccco1	-2.1
CC1CCCN(S(=O)(=O)c2ccc(NC(=O)CN3C(=O)NC(C)(c4ccccc4)C3=O)cc2)C1 (stereo not drawn)	-0.98
COc1ccccc1CNC(=O)CCS(=O)(=O)c1cccc2nonc12	-0.21
CC(C)(C)NC(=O)c1ccc(NC(=O)C2COc3ccccc3O2)cc1 (stereo not drawn)	0.35

Other structures follow:
SMILES	Kir21 block
CC1CCCCC1NC(=O)CCS(=O)(=O)c1ccc2c(c1)NC(=O)CS2 (stereo not drawn)	0.11
O=C(Nc1nnc(Cc2ccccc2F)s1)c1ccccc1Cl	-0.34
COc1cccc(-c2cc(C(=O)Nc3cccnc3)no2)c1	-2.33
COc1ccc(-c2nc(NC(=O)C3CC(=O)N(c4ccc5c(c4)OCCO5)C3)sc2C)cc1 (stereo not drawn)	-0.13
O=C(NCCN1CCN(c2ccccc2)CC1)c1cccn2c(=O)c3cc(Cl)ccc3nc12	-0.78
COc1ccc(Cl)cc1NC(=O)c1ccc2c(SCC(=O)O)c3c(nc2c1)CCCC3	-0.42
Cc1ccccc1N1CCN(c2ncnc3c2cnn3Cc2ccc(Cl)cc2)CC1	-0.3
CCC(C)C1C(C#N)=C(N)OC2=C1C(=O)CC(C)(C)C2 (stereo not drawn)	-0.24
COc1ccc(NC(=O)C2CSC3c4ccccc4C(=O)N23)cc1 (stereo not drawn)	-0.21
CC12COC3(C(=O)Nc4ccccc4F)CC1CCC32C (stereo not drawn)	0.48
C=CCn1c(=O)c2ccccc2n2c(SCC(=O)c3ccccc3)nnc12	-1.61
CC(C)c1ccc(C2NC(=S)NC3=C2C(=O)CC(C)(C)C3)cc1 (stereo not drawn)	-2
CCOC(=O)CSc1cccc2cccnc12	0.86
COc1ccccc1C(=O)NNC(=O)CN1C(=O)c2ccccc2C1=O	-2.84
O=C1CC(c2ccsc2)c2ccc3ccccc3c2N1 (stereo not drawn)	-0.13
Cc1nnc(SCC(=O)c2c(N)n(Cc3ccccc3)c(=O)n(C)c2=O)n1C	-0.15
CC12C(=O)N(CCC(=O)O)C(=O)C1C1C=CC2C1 (stereo not drawn)	0.27
Cc1cccc(N2CCN(C(=O)c3ccccc3NC(=O)C3CC=CCC3C(=O)O)CC2)c1 (stereo not drawn)	0.16
COc1ccc(NC(=O)CN(C)C(C)C(=O)N2CCCCC2)cc1 (stereo not drawn)	0.17
O=C(NC(=S)NC1CCN(Cc2ccccc2)CC1)c1ccc(F)cc1	-3.85
CCCOc1ccc(C(=O)c2ccccc2C(=O)O)cc1OCCC	0.33
O=C(NCc1cccnc1)c1ccc(Cl)cc1[N+](=O)[O-]	2.14
CCc1cc(C(=O)O)c(NC(=O)/C=C/c2ccc(OC)c(OC)c2)s1	0.47
Cc1cc(C(=O)Cn2nc(C(=O)O)c3ccccc3c2=O)c(C)n1-c1ccc(F)cc1	0.02
O=C(CNS(=O)(=O)c1cccc2nsnc12)NC1CCCCC1	-0.37
O=C(c1ccco1)N1CCN(C(=O)c2cccc3c2C(=O)N(Cc2cccnc2)C3)CC1	-0.16
O=C1c2ccccc2C(=O)N1CCCc1c[nH]c2ccc(Cl)cc12	0.04
Cc1ccc(C(=O)NC2CCS(=O)(=O)C2)cc1S(=O)(=O)N1CCCC1 (stereo not drawn)	1.28
S=C(NCCCc1ccccc1)Nc1ccc(Cl)cc1	0.9
CCOc1ccccc1NC(=O)C1=C(C)NC(=O)NC1c1cccc(OC)c1OC (stereo not drawn)	-0.58
Cc1csc(Nc2nc(N)c(C(=O)Nc3ccccc3)o2)n1	-0.98
Cc1nn(-c2ccccc2)c(N2CCCC2)c1/C=N/n1cnc2scc(-c3ccccc3)c2c1=O	0.99
C(=N\N1CCOCC1)/c1nc(-c2ccccc2)n2ccccc12	-0.07
C#CCn1c(=NC(=O)c2ccc(S(=O)(=O)N3CCCc4ccccc43)cc2)sc2cc(S(N)(=O)=O)ccc21	-1.8
O=S(=O)(Nn1c(O)c(C=C2N=c3ccccc3=N2)sc1=S)c1ccccc1	-0.05
COc1ccc(OC)c(C(c2nnnn2Cc2ccco2)N2CCN(C)CC2)c1 (stereo not drawn)	0.44
COc1ccc2cc(C)c3nnc(SCC(=O)Nc4nc(-c5ccccc5)cs4)n3c2c1	0.63
Cc1c(Br)ccc(NC(=O)COc2ccccc2C(N)=O)c1C	1.22
CN(CC(=O)NC1CCCCCC1)S(=O)(=O)c1cnc[nH]1	2.22
O=C1C=C(c2cc3ccccc3s2)CCC1	-0.47

7 of the entries above in order of their number in Kir21 block, smallest number first:
SMILES	Kir21 block
C#CCn1c(=NC(=O)c2ccc(S(=O)(=O)N3CCCc4ccccc43)cc2)sc2cc(S(N)(=O)=O)ccc21	-1.8
O=C1C=C(c2cc3ccccc3s2)CCC1	-0.47
C(=N\N1CCOCC1)/c1nc(-c2ccccc2)n2ccccc12	-0.07
COc1ccc(OC)c(C(c2nnnn2Cc2ccco2)N2CCN(C)CC2)c1 (stereo not drawn)	0.44
COc1ccc2cc(C)c3nnc(SCC(=O)Nc4nc(-c5ccccc5)cs4)n3c2c1	0.63
Cc1c(Br)ccc(NC(=O)COc2ccccc2C(N)=O)c1C	1.22
CN(CC(=O)NC1CCCCCC1)S(=O)(=O)c1cnc[nH]1	2.22

Remaining list, next part.
SMILES	Kir21 block
O=C(O)C1=C[C@@H](c2ccc(F)cc2)C[C@@H](OCCCCO)O1	-1.66
CCCC(=O)Nc1ccc(NCc2ccc(C)s2)cc1	0.49
O=C(COC(=O)COc1ccc2ccccc2c1)Nc1cc(C(F)(F)F)ccc1N1CCOCC1	0.68
COc1ccccc1CNC(=O)Cn1cnnn1	0.47
CCC(=O)Nc1cccc(NC(=S)NC(=O)c2ccc(Cl)cc2)c1	-1.06
Cc1ccc(C(=O)NCC(=O)O)s1	0.03
CC(C)[C@H](NC(=O)[C@@H]1Cc2ccccc2CN1C(=O)OC(C)(C)C)C(=O)NC1CCCC1	1.05
CC(=O)N/C(=C\c1ccc(F)cc1)C(=O)NC(C(=O)O)C(C)C (stereo not drawn)	0.26
COc1ccccc1-c1nnc(SCC(=O)N2CCOCC2)n1-c1ccccc1	0.35
Cc1ccnc(N2CCC(C(=O)Nc3ccc4c(c3)OCO4)CC2)n1	1.49
O=C(O)CCC(=O)Nc1ccc(Br)c(Cl)c1	0.18
Cc1ccc(C(=O)Oc2ccc(N3C(=O)CCC3=O)c(C)c2)cc1	-1.41
COC(=O)Nc1ccc(S(=O)(=O)N2CCCC(C(=O)N3CC(C)OC(C)C3)C2)cc1 (stereo not drawn)	0.54
COc1ccc(/C=N/NC(=O)c2nonc2N)cc1OC	0.08
Cc1onc(-c2ccccc2Cl)c1C(=O)Nc1ccc(-n2nncc2-c2ccco2)cc1	1.28
Cc1ccc(Cc2ccc(C(=O)NNC(N)=S)o2)cc1	-2.02
Cc1cc(NC(=O)Cn2nc(C(F)(F)F)c3c2CCC3)no1	-0.45
O=C(NCc1cn2ccccc2n1)c1ccco1	-1.28
CN1c2ccccc2N(C)C1(C)c1cccc2ccccc12	-0.47
O=C(Nc1ccc(S(=O)(=O)C(F)F)cc1)c1cccc(S(=O)(=O)N2CCOCC2)c1	1.66
CCCn1c(NC(=O)c2ccccc2)nc2ccccc21	1.01
CCN(c1ccc(C)c(C)c1)S(=O)(=O)c1ccc2c(c1)CCN2C(=O)CCC(=O)O	-2.05
Cc1ccc(C2=CSC3=NNC4(CCCCC4)NN23)cc1	0.23
CN(c1ccc(OCC(=O)N2CCCCC2)cc1)S(=O)(=O)c1cccs1	-0.38
O=C(c1ccc(F)cc1)C1CCN(Cc2ccc(F)cc2)CC1	1.56
Cc1ccc(NC(=O)NCC(c2cccnc2)N2CCOCC2)cc1 (stereo not drawn)	-0.22
Cc1ccc(NC(=O)COC(=O)/C=C/c2ccccc2)cc1S(=O)(=O)N1CCOCC1	-1
O=C(NC1CCSC1=O)c1ccc(Oc2cccc(C(F)(F)F)c2)nc1 (stereo not drawn)	-0.14
CCOc1ccccc1NC(=O)NCCc1c[nH]c2ccccc12	-0.36
